Screens deposited in PubChem BioAssay by several laboratories.
Hsc70 – small molecules displacing fluorescent ligand from Hsc70 – biochemical, fluorescence polarization, primary screen (AID 568) | Hsc70 fluorescence polarization, probe displacement; higher % means a stronger effect; strong numbers were not always called active | 83,000 tested, under 10 active | one-dose displacement, % at 20 µM; IC50 in µM for titrated hits;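 active = displacement above 50% without optical interference and an IC50 on retest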;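 also: ATPase domain with a fluorescein-tagged ATP probe; 0% = vehicle and 100% = excess ADP; read after one hour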
MT1-MMP promoter – inhibitors of MT1-MMP promoter transcription, cell-based, luciferase reporter, luminescence (AID 618); calls from a first round at 10 µM; hits with a dose series show EC50 in µM; MT1-MMP promoter luciferase reporter cells, luminescence; 87,000 compounds, 0.62% hits;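 active = over half of the reporter light lost at 10 µM or EC50 under 50 µM; inactive = the rest and hits that failed the dose series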;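 also: actives suppress MT1-MMP promoter-driven transcription so potencies describe inhibitors; HT1080 fibrosarcoma cells; overnight exposure; toxic or luciferase-blocking compounds were not removed from the actives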
WNV protease inh – inhibitors of West Nile virus NS2B-NS3 protease; z-score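 (tested at a level between 10 and 100 µM)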; 65,000 compounds, 0.18% hits; WNV NS2B-NS3 protease, fluorogenic substrate Ex360/Em465; hits give low values; P06935;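 active = z-score at -3 or under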;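 also: score is relative to mean and spread of the compound wells of a plate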
Target sequence (P06935 1371-1501 limits assumed): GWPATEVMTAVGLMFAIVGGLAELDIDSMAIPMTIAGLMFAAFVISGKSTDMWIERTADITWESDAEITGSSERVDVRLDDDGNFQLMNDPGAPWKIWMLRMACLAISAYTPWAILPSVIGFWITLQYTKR
Target sequence (P06935 1502-1679 limits assumed): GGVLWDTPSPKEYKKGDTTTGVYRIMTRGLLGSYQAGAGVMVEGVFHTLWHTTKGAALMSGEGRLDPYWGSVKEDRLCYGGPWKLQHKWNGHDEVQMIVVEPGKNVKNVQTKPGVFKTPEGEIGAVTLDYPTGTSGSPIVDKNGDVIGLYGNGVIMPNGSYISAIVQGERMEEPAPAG
Numbers without * were called inactive; i = inactive; . = not tested or not shown. Random draw from the library, and some 0.8% of all compounds hit somewhere here.

canonical_smiles,Hsc70,MT1-MMP promoter,WNV protease inh
COC(=O)CSc1cc(C)nc(NC(C)=O)n1,2.1%,i,-0.25
CCN1CC=C2C(C#N)=C(N)C(C#N)(C#N)C(c3cc(Cl)ccc3Cl)C2C1 (stereo not given),59%,i,-0.94
CSc1ccccc1NC(=O)Cn1c(-c2cscn2)nc2ccccc21,1.8%,i,-0.23
CCCOc1ccc(NC(=O)c2c(-c3ccccc3)noc2C)cc1,-0.5%,i,1.5
CCCCC(=O)Nc1ccc(F)c(Cl)c1,1.7%,i,-0.76
O=C1CC(c2ccc(F)cc2)C2=C(CCCC2=O)N1 (stereo not given),1.6%,i,-1.1
O=C(CN1C(=O)c2ccccc2C1=O)OCN1C(=O)c2ccccc2C1=O,-4.3%,i,-0.3
NC(=O)C(F)(F)C12OC3C4C5CC(C6C5C3C61)C42 (stereo not given),9.7%,i,-0.34
CCOc1ccc(-c2nn3c(-c4ccc(OC)cc4)nnc3s2)cc1,-0.3%,i,-0.73
CC(C)Oc1cccc(-c2cc(C(=O)N3CCN(S(C)(=O)=O)CC3)c3ccccc3n2)c1,0.5%,i,0.08
CC(=O)c1ccc(NC(=O)C2CCN(S(=O)(=O)c3cccc4cccnc34)CC2)cc1,2.6%,i,-0.31
CCN(CC)CCCN1C(=O)CSC1c1ccc2c(c1)OCO2 (stereo not given),-14%,i,0.18
CCC(C)NC(=O)CSc1nc2n[nH]c(C)c2c(=N)n1-c1ccc(OC)cc1 (stereo not given),-3.9%,i,1.3
Cc1ccc2c(CSc3nc4ccccc4c(=O)n3CCCO)cc(=O)oc2c1,2.2%,i,0.44
CCCc1cc(=O)oc2c(CN3CCCC3)c(O)c(Cl)cc12,-7.2%,i,6.2
COCc1nnc(NC(=O)c2ccc(NC(=O)C(C)C)cc2)s1,-4.7%,i,-0.94
CCOC(=O)Cc1c(C)nc2c(-c3ccccc3)c[nH]n2c1=O,1.7%,i,-1.2
Nc1nc(CSc2nnnn2-c2ccc(F)c(Cl)c2)nc(N2CCOCC2)n1,-5.3%,i,0.26
CCn1c(C(=O)NCCCc2ccccc2)cc2sccc21,-6.7%,i,-0.39
CCC(=NCc1ccccc1)C1=C(O)C(C(=O)OC)C(C)(C)CC1=O (stereo not given),3.8%,i,1.2
COc1ccc(C2C(C#N)=C(N)Oc3n[nH]c(C)c32)cc1Cn1nnc2ccccc21 (stereo not given),-0.3%,i,-0.07
Cc1cccc(C(=O)CC(=O)c2cc(Cl)ccc2O)c1,-0.4%,i,.
CCc1ccc(NC(=O)C2CC=CCC2C(=O)O)cc1 (stereo not given),0.3%,i,0.72
COc1ccc(C(=O)N2CCCC(c3ccccc3)C2)cc1 (stereo not given),2.1%,i,0.11
CSc1ccc(CNc2ccccn2)cc1,-1.6%,i,-0.85
COc1ccccc1NC(=O)c1nnn(Cc2ccccc2)c1NC(=O)C(F)(F)F,0.9%,i,.
COc1ccc2c(c1)cc1n2CCN=C1NN,-0.5%,i,.
O=C(NCc1ccccc1)c1ccc(COCC(F)(F)F)o1,-6.1%,i,0.49
Cc1noc(C)c1C(=O)N1CCN(C(=O)c2sc3cc(Cl)ccc3c2Cl)CC1,-3.2%,i,0.7
Cn1c(=O)[nH]c(=O)c2c1nc(N1CCCCC1)n2CCCSc1nc2ccccc2s1,-4.7%,i,-0.17

Some values from the results shown:
`COc1ccc(C(=O)N2CCCC(c3ccccc3)C2)cc1` (stereo not given) @ Hsc70 = 2.1%
`Cc1cccc(C(=O)CC(=O)c2cc(Cl)ccc2O)c1` @ Hsc70 = -0.4%
`COc1ccc(C2C(C#N)=C(N)Oc3n[nH]c(C)c32)cc1Cn1nnc2ccccc21` (stereo not given) @ WNV protease inh = -0.07
`CCOc1ccc(-c2nn3c(-c4ccc(OC)cc4)nnc3s2)cc1` @ WNV protease inh = -0.73
`CCc1ccc(NC(=O)C2CC=CCC2C(=O)O)cc1` (stereo not given) @ WNV protease inh = 0.72

Continued:
canonical_smiles,Hsc70,MT1-MMP promoter,WNV protease inh
COc1ccccc1C(=O)NC(C)C(c1cccs1)N1CCN(C)CC1 (stereo not given),0.7%,i,0.09
CC(Oc1ccc(Cl)cc1Cl)C(=O)N(Cc1ccco1)C1CCS(=O)(=O)C1 (stereo not given),-0.5%,i,0.33
Cn1c(SCC(=O)Nc2ccc(N3CCOCC3)c(Cl)c2)nnc1C(O)c1ccccc1 (stereo not given),6.2%,i,-0.14
Cc1c(NC(=O)CCC(=O)N2CCCCC2)c(=O)n(-c2ccccc2)n1C,-0.8%,i,0.6
Cc1ccc(Cn2nnnc2CN2CCC(O)(c3ccccc3F)CC2)cc1,-5.3%,i,-0.34
O=C(Nc1ccc(CN2CCOCC2)cc1)c1ccc(-c2cc(Cl)ccc2Cl)o1,-2.6%,i,.
CNC(=O)c1nnn(Cc2ccccc2)c1NC(=O)C(F)(F)F,-8.4%,i,1.4
Cc1cc(=O)oc(C)c1C(=O)n1nc(C)c2c1C[C@@H]1[C@H]2C1(C)C,2.8%,i,0.37
CCOc1cccc(C(=O)Nc2ccccc2N2CCN(C(=O)C(C)C)CC2)c1,3.6%,i,1.6
CN(C)Cc1nc2c(c(=O)[nH]1)C1(CCCCC1)Cc1ccccc1-2,-7.7%,i,-0.82
CCOC(=O)Cc1csc(NC(=O)c2csc3c2CCCC3)n1,-3.3%,i,-0.67
C=CCn1c(O)c(C(CC)=NCc2cccnc2)c(=O)[nH]c1=O,5.9%,i,-1.1
Cc1ccc2c(c1)c(CC(=O)Nc1ccc(F)cc1)c(C(=O)O)n2C,-1.3%,i,.
CC1=NS(=O)(=O)c2cc(Cl)ccc2N1,-0.9%,i,0.09
O=c1cc(NCc2ccco2)c2ccccc2o1,1.9%,i,-0.32
CN(C)/C=N/c1cnc(C(=O)c2ccc(Cl)cc2)n1C,-1.7%,i,-0.62
NC(=O)COc1ccc2c3c(c(=O)oc2c1)CCCCC3,-1.5%,i,-0.77
Cc1c(C2CC(=O)N(c3ccccc3)C2=O)[nH]n(-c2ccccc2)c1=O (stereo not given),-2.1%,i,-0.26
O=C(CSc1nnnn1Cc1ccccc1)Nc1ccc2c(c1)OCO2,-0.9%,i,-0.8
CCCC(=O)NC1=C(C#N)C2(CCCC2)Cc2ccccc21,-7.0%,i,-0.02
CCCn1cc(NC(=O)C2CC(c3cccc(Br)c3)=NO2)cn1 (stereo not given),14%,i,-1.5
Cc1oc(-c2ccc(Cl)cc2)cc1-c1nn2c(-c3ccoc3C)nnc2s1,-34%,i,-1
CCCCCn1c(N2CCC(Cc3ccccc3)CC2)nc2c1c(=O)[nH]c(=O)n2C,0.7%,i,-0.5
CCN(CC)C(C(=O)Nc1ccc2c(c1)OCO2)c1ccccc1 (stereo not given),-4.0%,i,0.9
Cc1c(C(=O)NCc2ccc3c(c2)OCO3)sc2nc(-c3ccc(F)cc3)cn12,0.0%,i,-1.1
Cc1ccc(C2CC(=O)NC(SCc3ccccc3)=C2C#N)cc1 (stereo not given),3.4%,i,.
COc1ccc2oc(=O)c(C(=O)O)cc2c1,-8.1%,i,0.91
Cc1n[nH]c(=O)nc1NCc1ccc(Cl)cc1,-2.7%,i,-0.06
CS(=O)(=O)N1CCN(c2ccccc2NC(=O)c2cccnc2)CC1,6.7%,i,0.51
CCCOc1nnnn1-c1ccccc1,-3.3%,i,.
Cn1c(-c2ccc(CN3CCCCC3)o2)nc2ccccc21,-21%,i,0.62
COCc1nnc(NC(=O)CC(c2ccccc2)c2ccccc2)s1,6.0%,i,.
COc1ccc(C(=O)Nc2nc(N3C(=O)c4ccccc4C3=O)n(-c3ccccc3)n2)cc1,1.3%,i,.
OCCCCCN=c1cc(-c2ccccc2)oc2ccc(Cl)cc12,0.3%,i,.
COc1cc(/C=N/n2cnnc2)ccc1OCCOc1ccccc1,4.9%,i,0.83
Cc1nc2c(sc3nc4c(cc32)COC(C)(C)C4)c(=O)n1CC(=O)NCc1ccco1,5.0%,i,0.58
COc1ccc(C(=O)N2CCN(C3CCCCC3)CC2)c(OC)c1,-0.9%,i,-0.43
Cc1ccc(S(=O)(=O)C2CS(=O)(=O)CC2O)cc1 (stereo not given),7.1%,i,.
Cc1ccc2nc(NC(=O)C3CCN(S(=O)(=O)c4cccs4)CC3)sc2c1,0.5%,i,-0.64
CC(=O)c1cc(C#N)c(SCc2ccccc2C#N)nc1C,-2.1%,i,.
Cn1nc(C(=O)NC2CCCCCC2)ccc1=O,-0.7%,i,-0.59
O=C1NC2(CCCCCC2)Cc2ccccc21,5.2%,i,.
Cc1ccccc1-c1nc(CS(=O)CC(=O)NCc2ccccc2)c(C)o1 (stereo not given),-1.9%,i,-0.94
Cc1cc(C2C(=O)CC(=O)CC2c2ccccc2)on1 (stereo not given),-7.8%,i,0.05
O=C(CSc1nnc(NC2CCCCC2)s1)NC1CCS(=O)(=O)C1 (stereo not given),1.9%,i,-0.57
CC1Cc2nc(SCC(=O)Nc3nccs3)n(Cc3ccccc3)c(=O)c2S1 (stereo not given),1.6%,i,-0.91
COC1(OC)C(/C=C/c2ccc(C)cc2)C(C#N)(C#N)C1(OC)OC (stereo not given),-0.8%,i,.
O=C(NCC1CCCO1)c1ccccn1 (stereo not given),-2.4%,i,0.06
Cc1cc(=O)n2c(C)n[nH]c2n1,-1.6%,i,-0.27
Cc1sc(NC(=O)C2CCCCC2C(=O)O)c(C(N)=O)c1C (stereo not given),10%,i,.
Cc1nnc2n1NC(c1ccc(Cl)cc1)C(C(=O)N(C)C1CCCCC1)S2 (stereo not given),4.1%,i,-2.6
COC(=O)c1c(NC(=O)Cc2cccs2)sc(C(=O)N2CCCCC2)c1C,0.2%,i,0.15
CCOCCCn1c(=NC(C)=O)c(C(=O)OCC)cc2c(=O)n3ccccc3nc21,-5.1%,i,3.7
CCN(CC)S(=O)(=O)c1ccc(N(C)Cc2ccc(C(F)(F)F)cc2)nc1,3.6%,i,.
CC(=O)Nc1cccc(-c2csc(NCc3ccco3)n2)c1,-5.3%,i,0.06
Cc1cccc(N2CCN(C(=O)c3ccc(Cl)c(S(=O)(=O)NCc4ccco4)c3)CC2)c1C,2.3%,i,0.73
CC(=O)OCC(=O)Nc1ccc(Cl)cc1Cl,-5.2%,i,-0.91
Cc1cc(N2CCN(C3CCCC3)CC2)n2c(nc3ccccc32)c1C#N,-6.3%,i,1.6
COc1ccccc1C(=O)NCCCn1cc(Br)c(C)n1,2.0%,i,-1.2
O=C(O)c1ccc(NC(=O)c2cccs2)cc1,5.0%,i,-0.42

Later entries
canonical_smiles,Hsc70,MT1-MMP promoter,WNV protease inh
COc1cccc(-n2c(SCC(=O)NCCc3ccccc3)nnc2-c2ccoc2C)c1,-3.1%,i,0.29
Cc1ccc(-c2nc(SCC(=O)NCCN3C(=O)CSC3=O)[nH]c2-c2ccc(C)cc2)cc1,3.6%,i,.
O=C(NCc1ccc(F)cc1)C(c1cccs1)N(C(=O)c1csnn1)C1CC1 (stereo not given),2.9%,i,0.95
CCOC(=O)CNc1nc(C(C)(C)C)nc2c1nnn2Cc1ccccc1Cl,1.9%,i,0.29
Cc1ccccc1NC(=O)CNc1ccccc1N1CCCCC1,1.0%,i,-0.22
COc1ccc(Cn2cccc(NC(=O)Nc3ccc(C#N)cc3)c2=O)cc1,3.9%,i,-0.15
CCCN1C2CCCC1CC(NC(=O)c1ccccc1)C2 (stereo not given),2.1%,i,-0.28
O=C(O)CSc1nccn1-c1cccc(Cl)c1,4.5%,i,.
CSc1ccccc1C(=O)Nc1ccc2c(c1)OCCO2,1.7%,i,.
O=C(CN1C(=O)C(=O)c2ccccc21)NC1CCCCC1,-1.2%,i,.
CC(C)CCn1cnc2c([nH]c3cccc(Cl)c32)c1=O,-15%,i,0.18
COc1ccc(C)cc1NS(=O)(=O)c1cccc2nonc12,6.0%,i,0.0071
Cc1cc(C)n2nc(SCC(=O)NCc3ccco3)nc2n1,-6.7%,i,-0.45
COc1ccc2oc(C(=O)CCC(=O)O)c(N)c2c1,3.5%,i,0.71
CCOCCCNCC(=O)Nc1ccccc1N1CCOCC1,0.3%,i,0.45
CC(C)(C)c1ccccc1NC(=O)c1ccco1,0.0%,i,0.74
CN(C(=O)Cc1ccccc1)n1cnnc1,-2.2%,i,.

Part of the list above, limited to Hsc70:
Structure	Hsc70
Cc1cc(C)n2nc(SCC(=O)NCc3ccco3)nc2n1	-6.7%
COc1ccc2oc(C(=O)CCC(=O)O)c(N)c2c1	3.5%
CCOCCCNCC(=O)Nc1ccccc1N1CCOCC1	0.3%
CC(C)(C)c1ccccc1NC(=O)c1ccco1	0.0%
CN(C(=O)Cc1ccccc1)n1cnnc1	-2.2%
